Compound activity from PubChem.
BJeLR viability = compounds reducing viability of BJeLR cells | BJeLR fibroblasts viability, CellTiterGlo ATP luminescence, 48 h; HRASV12, hTERT and SV40 LT/ST transformed | viability loss activity score, % (concentration not given with the values) | 30,000 compounds, 0.64% hits | AID 2275; in the data active means viability loss activity score above about 50%; about a fifth of its hits are not listed in these tables;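 further: higher score means fewer live cells and less ATP luminescence; stock transfer was 50 or 100 nL into about 30 µL; 0% = vehicle wells and 100% = a reference killing control; one replicate is shown; the record names a cut of 85%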
A1 inhib = blocks A1 activity; MEF A1-2A-BIM cells, caspase-Glo luminescence, 3 h; percent of clofoctol signal, DMSO as zero; caspase activation, % (test concentration not listed); 21,000 compounds, 0.51% hits; AID 2241;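 active means most replicate scores above 10, or exactly half above 10 with mean activity above 10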;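 further: effector caspase 3 and 7 activity cleaving a DEVD luciferin substrate; 50 nL library stock added to about 30 µL; numbers are from one replicate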
* = called active by the depositor; x = no result given. These rows are one share of the data; count on the stated rates, not on these rows.

| SMILES | A1 inhib | BJeLR viability |
| --- | --- | --- |
| C[C@@H]1CN([C@@H](C)CO)C(=O)c2cc(NC(=O)Cn3cnnn3)ccc2O[C@@H]1CN(C)C(=O)Nc1ccccc1 | 0.2 | -0.7 |
| CC(C)NC(=O)Nc1cccc2c1O[C@H](CN(C)C(=O)NC1CCCCC1)[C@@H](C)CN([C@@H](C)CO)C2=O | x | 0.9 |
| Cc1ccc(S(=O)(=O)NC(=O)NC2CCCc3ccccc32)cc1 (stereo not given) | 0.8 | -0.3 |
| Cc1ccc(S(=O)(=O)Nc2ccc3c(c2)C(=O)N([C@H](C)CO)C[C@H](C)[C@H](CN(C)S(=O)(=O)c2ccccc2)O3)cc1 | 0.0 | 4.9 |
| C[C@@H]1CN([C@H](C)CO)C(=O)c2cc(NS(=O)(=O)c3ccc(Cl)cc3)ccc2O[C@@H]1CN(C)S(=O)(=O)c1cn(C)cn1 | 1.0 | 2.2 |
| C[C@@H]1CN([C@@H](C)CO)C(=O)c2cccc(NC(=O)c3cnccn3)c2O[C@@H]1CN(C)Cc1ccc(C(F)(F)F)cc1 | x | -5.5 |
| C[C@@H]1CN([C@H](C)CO)C(=O)c2cc(NC(=O)Nc3ccc(F)cc3)ccc2O[C@H]1CN(C)C(=O)Nc1ccccc1 | 0.4 | 0.7 |
| N#CC(=C1SCCCCS1)S(=O)(=O)c1ccc(Cl)cc1 | 0.0 | -1.1 |
| C[C@@H]1CN([C@H](C)CO)C(=O)c2cccc(NS(C)(=O)=O)c2O[C@@H]1CN(C)S(=O)(=O)c1ccc(F)cc1 | x | 19 |
| CCCc1cc(=O)[nH]c(/N=C(\N)Nc2cccc(C(F)(F)F)c2)n1 | 0.4 | 1.7 |
| CNC[C@@H]1Oc2ccc(NS(=O)(=O)c3c(C)noc3C)cc2C(=O)N([C@H](C)CO)C[C@@H]1C | -0.2 | 2.0 |
| C[C@@H]1CN([C@H](C)CO)C(=O)c2cc(NC(=O)CCC(F)(F)F)ccc2O[C@@H]1CN(C)C(=O)NC1CCCCC1 | -0.9 | 0.0 |
| CC1=Nc2cc(C(=O)O)ccc2Sc2ccc(Br)cc21 | 0.4 | -3.7 |
| Cc1cc(C(=O)Nc2cccc3c2O[C@@H](CN(C)Cc2ccc4c(c2)OCO4)[C@H](C)CN([C@H](C)CO)C3=O)n(C)n1 | x | 1.7 |
| Cc1ccc(NC(=S)N2CCCC(c3ccccc3)=N2)cc1 | x | 1.5 |
| COc1cc(-c2c(C#N)c(SCC#N)nc(N)c2C(=O)OC(C)C)cc(OC)c1OC | 0.7 | 0.6 |
| C[C@@H]1CN([C@H](C)CO)C(=O)c2cc(NC(=O)Nc3ccccc3)ccc2O[C@H]1CN(C)C(=O)NC1CCCCC1 | 0.2 | -0.1 |
| COc1cccc(NC(=O)COc2ccccc2OC)c1 | -2.8 | 7.1 |
| NC(N)=NC(N)=Nc1ccccc1 | -0.6 | -5.8 |
| O=C(O)CCC(=O)c1ccc2c(c1)OCCCO2 | -0.1 | -1.6 |
| O=C(c1ccc2c(c1)OCO2)N1CCCCC1 | 0.5 | -4.3 |
| COc1c(O)c(C(=O)CCc2ccccc2)c(OC)c(OC)c1OC | 0.3 | -6.7 |
| CN1C(=O)c2cccc3cccc(c23)[S+]1c1ccccc1C(=O)O (stereo not given) | -0.4 | -4.9 |
| Cc1cc(N2CCC(C(=O)N3CCOCC3)CC2)n2nc(C)c(-c3ccc(Cl)cc3)c2n1 | x | -3.2 |
| COc1cccc(Cc2nnc(-c3c(-c4ccccc4)noc3C)o2)c1 | 0.5 | -3.2 |
| COc1ccc(S(=O)(=O)Nc2ccc3c(c2)C(=O)N([C@H](C)CO)C[C@H](C)[C@@H](CN(C)Cc2ccc(C(=O)O)cc2)O3)cc1 | -0.3 | -7.3 |
| COC(=O)c1ccc(OC(=O)CCN2C(=O)c3ccccc3C2=O)cc1 | x | 0.9 |
| Cc1nc(S(=O)(=O)N2CCN(C3c4ccccc4-c4ccccc43)CC2)cn1C | 0.3 | 2.3 |
| CC(C)[C@@H]1NC(=O)[C@@H](Cc2c[nH]c3ccccc23)n2c1nc1ccccc1c2=O | -0.7 | -9.1 |
| Cc1ccc(-c2cc(Cc3ccccc3)c(=O)[nH]n2)cc1 | x | -5.3 |
| COc1ccc(OC)c(NC(=O)COc2ccccc2)c1 | -0.8 | 0.5 |
| Cc1cc2nc(SCC(=O)NN)[nH]c2cc1C | 0.6 | 0.6 |
| Cc1noc(C)c1S(=O)(=O)Nc1cccc2c1O[C@@H](CN(C)Cc1ccc(Cl)c(Cl)c1)[C@@H](C)CN([C@@H](C)CO)C2=O | x | 3.6 |
| CCOC(=O)c1nc2c(o1)NC(N)=C(C#N)C2c1ccc(Cl)cc1 (stereo not given) | 0.1 | 0.7 |
| Cc1noc(C)c1S(=O)(=O)Nc1cccc2c1O[C@@H](CN(C)C(=O)Nc1ccccc1)[C@@H](C)CN([C@@H](C)CO)C2=O | x | -2.1 |
| CCC(C)C(=O)O[C@H]1C[C@H](O)C=C2C=C[C@H](C)[C@H](CC[C@@H](O)C[C@@H](O)CC(=O)O)C21 (stereo not given in full) | 0.4 | 0.6 |
| C[C@H]1CN([C@@H](C)CO)C(=O)c2cccc(NC(=O)c3nc4ccccc4s3)c2O[C@@H]1CN(C)C(=O)Nc1ccc(C(F)(F)F)cc1 | x | -4.4 |
| Cc1ccc(-c2nc(C(=O)N(C)c3cc(C)ccc3C)c3n2CCCCC3)cc1 | 0.3 | 5.1 |
| C[C@H]1CN([C@@H](C)CO)C(=O)c2cc(NC(=O)CCCCCC(=O)Nc3ccccc3N)ccc2O[C@@H]1CN(C)C(=O)Nc1ccc(C(F)(F)F)cc1 | x | 3.2 |
| O=C(Cn1cnc2c(nnn2-c2cccc(Cl)c2)c1=O)N1CCCc2ccccc21 | 0.2 | 0.3 |
| COC(=O)N1c2ccccc2C=CC1C#N (stereo not given) | -0.2 | 1.5 |
| C[C@@H]1CN([C@@H](C)CO)C(=O)c2cc(NS(=O)(=O)c3ccc(F)cc3)ccc2O[C@H]1CN(C)S(=O)(=O)c1ccc(Cl)cc1 | -0.1 | -0.4 |
| COc1c(C=O)c(O)cc2c1C(=O)c1ccccc1C2=O | 2.3 | -12 |
| Cc1c(C)c(C)c(CSc2cccc(NC(=O)/C=C/C(=O)O)c2)c(C)c1C | 0.5 | 0.9 |
| C[C@H]1CN([C@@H](C)CO)C(=O)c2cc(NC(=O)C3CCCCC3)ccc2O[C@H]1CN(C)CC1CCCCC1 | 0.0 | -0.4 |
| C[C@H]1CN([C@@H](C)CO)C(=O)c2cccc(NC(=O)C3CCOCC3)c2O[C@H]1CN(C)S(=O)(=O)c1ccc(Cl)cc1 | x | -0.8 |
| COc1cc2occ(-c3ccc4c(c3)OCO4)c(=O)c2c(OC)c1OC | -0.8 | -3.5 |
| CNC[C@@H]1Oc2c(NS(=O)(=O)c3ccc(Cl)cc3)cccc2C(=O)N([C@@H](C)CO)C[C@@H]1C | x | -4.1 |
| CSc1sc(C(=O)O)c(I)c1S(=O)(=O)C(C)C | 0.1 | 3.8 |
| Cc1c(C(=O)N2CCCCC2)sc2nc[nH]c(=O)c12 | 0.3 | 7.9 |
| COc1ccc(NC(=O)N(C)C[C@H]2Oc3c(NC(=O)C4CC4)cccc3C(=O)N([C@H](C)CO)C[C@@H]2C)cc1 | x | -3.5 |
| O=C1c2ccccc2S(=O)c2ccccc2S(=O)(=O)N1Cc1ccccc1 (stereo not given) | 0.4 | -0.6 |
| O=C(Nc1cccnc1)c1nc2ncccn2n1 | -0.7 | 2.4 |
| Cc1ccc(S(=O)(=O)N(C)CC(=O)Nc2ccc(S(N)(=O)=O)cc2)cc1 | 1.4 | x |
| C[C@H]1CN([C@@H](C)CO)C(=O)c2cccc(NC(=O)NC3CCCCC3)c2O[C@H]1CN(C)S(=O)(=O)c1ccc(F)cc1 | x | 6.4 |
| COC(=O)C1=C(N)Oc2cc(C)n(Cc3ccccc3)c(=O)c2C1c1ccncc1 (stereo not given) | 0.2 | 1.0 |

Following part
| SMILES | A1 inhib | BJeLR viability |
| --- | --- | --- |
| CNC[C@H]1Oc2c(NC(=O)c3ccncc3)cccc2C(=O)N([C@@H](C)CO)C[C@H]1C | x | -0.2 |
| C[C@@H]1CN([C@@H](C)CO)C(=O)c2cc(NC(=O)Cc3ccccc3)ccc2O[C@@H]1CN(C)Cc1ccc(Oc2ccccc2)cc1 | 0.2 | -4.2 |
| Cc1noc(C)c1S(=O)(=O)Nc1ccc2c(c1)C(=O)N([C@@H](C)CO)C[C@@H](C)[C@@H](CN(C)S(=O)(=O)c1cccs1)O2 | -0.1 | 1.0 |
| COC(=O)c1c(C)nc(C)c(C(=O)OC)c1-c1csc(S(=O)(=O)Nc2ccc(OC)cc2)c1 | 0.1 | 0.5 |
| CCOC(=O)c1ncn(Cc2ccccc2)c1N | 0.3 | 0.4 |
| Cc1ccc2c(c1)N(CC(=O)NC1CCCCC1C)C(=O)CO2 (stereo not given) | x | -8.4 |
| CC(CCc1ccc(O)cc1)NCCc1ccc(O)c(O)c1 (stereo not given) | -0.5 | 1.1 |
| C[C@H](CO)N1C[C@H](C)[C@H](CN(C)Cc2ccccc2)Oc2ccc(NC(=O)CCC(F)(F)F)cc2C1=O | 0.1 | -7.6 |
| Cc1cc(C(=O)Nc2cccc3c2O[C@H](CN(C)S(=O)(=O)c2cccs2)[C@H](C)CN([C@@H](C)CO)C3=O)n(C)n1 | x | -3.9 |
| CS(=O)(=O)c1sc(C(=O)NC(=S)Nc2ccc(OC(F)(F)F)cc2)c2c1C=CCC2 | -0.4 | -1.2 |
| Cc1noc(C)c1NC(=O)Nc1ccc2c(c1)C(=O)N([C@H](C)CO)C[C@H](C)[C@@H](CN(C)C(=O)Nc1cccc3ccccc13)O2 | 0.1 | 1.2 |
| COc1cc(OC)c(-c2nc(-c3ccccc3)c(-c3cccs3)[nH]2)cc1OC | x | 2.3 |
| c1ccc(-n2cc3c(c2)CCc2cn(-c4ccccc4)cc2CC3)cc1 | 1.5 | -1.2 |
| CC(C)c1cc(C(C)C)c(S(=O)(=O)NCc2ccccc2)c(C(C)C)c1 | -1.1 | -2.8 |
| COc1ccc(C(=O)NCCc2ccccc2)cc1Cl | 0.0 | -5.9 |
| C[C@@H]1CN([C@H](C)CO)C(=O)c2cc(NC(=O)C3CC3)ccc2O[C@H]1CN(C)S(=O)(=O)c1ccc(Cl)cc1 | -0.4 | -0.7 |
| COc1ccc(NC(=O)N(C)C[C@H]2Oc3c(NC(=O)c4nc5ccccc5s4)cccc3C(=O)N([C@H](C)CO)C[C@@H]2C)cc1 | x | 1.2 |
| C[C@H](CO)N1C[C@H](C)[C@@H](CN(C)Cc2ccc(C(F)(F)F)cc2)Oc2ccc(NC(=O)c3ccncc3)cc2C1=O | 0.4 | -3.8 |
| Cc1noc(C)c1NC(=O)N(C)C[C@H]1Oc2c(NS(=O)(=O)c3ccccc3)cccc2C(=O)N([C@@H](C)CO)C[C@H]1C | x | -0.7 |
| COc1ccc(NC(=O)Nc2ccc3c(c2)C(=O)N([C@@H](C)CO)C[C@H](C)[C@@H](CN(C)S(=O)(=O)c2ccc(Cl)cc2)O3)cc1 | 1.0 | -3.1 |
| C[C@H](CO)N1C[C@H](C)[C@@H](CN(C)Cc2ccc(Oc3ccccc3)cc2)Oc2c(NC(=O)c3cnccn3)cccc2C1=O | x | -10.0 |
| C[C@@H]1CN([C@@H](C)CO)C(=O)c2cccc(NS(=O)(=O)c3ccc(Cl)cc3)c2O[C@H]1CN(C)Cc1ccc(C(F)(F)F)cc1 | x | -0.3 |
| O=C(Nc1ccccc1C(=O)NC1CCCCC1)c1ccco1 | -0.1 | -2.3 |
| Cc1noc(C)c1NC(=O)N(C)C[C@H]1Oc2ccc(NC(=O)CCC(F)(F)F)cc2C(=O)N([C@H](C)CO)C[C@@H]1C | 0.7 | -1.5 |

Record cards (already shown). Values in the order: A1 inhib, BJeLR viability
Results for COc1cc(OC)c(-c2nc(-c3ccccc3)c(-c3cccs3)[nH]2)cc1OC : x, 2.3
Results for Cc1ccc(-c2nc(C(=O)N(C)c3cc(C)ccc3C)c3n2CCCCC3)cc1 : 0.3, 5.1
Results for Cc1ccc(NC(=S)N2CCCC(c3ccccc3)=N2)cc1 : x, 1.5

Other compounds follow.
| SMILES | A1 inhib | BJeLR viability |
| --- | --- | --- |
| COc1ccc(S(=O)(=O)N(C)C[C@@H]2Oc3c(NC(=O)NC4CCCCC4)cccc3C(=O)N([C@@H](C)CO)C[C@H]2C)cc1 | x | -1.0 |
| C[C@@H]1CN([C@H](C)CO)C(=O)c2cc(NC(=O)c3ccncc3)ccc2O[C@H]1CN(C)C(=O)Nc1ccccc1 | 0.2 | -2.6 |
| Cc1ccc(CN2C(=O)CSc3ccc(NC(=O)Nc4cccc5ccccc45)cc32)cc1 | 0.2 | -3.2 |
| O=C(Oc1cc(OC(=O)c2ccco2)cc(OC(=O)c2ccco2)c1)c1ccco1 | 1.2 | -9.0 |
| CC/C=C\C[C@@H]1C(=O)C=C[C@@H]1CCCCCCCC(=O)O | 1.4 | -17 |
| COc1cc2ccc(=O)oc2cc1OCC(O)C(C)(C)O (stereo not given) | 0.2 | 0.1 |
| C[C@@H]1CN([C@@H](C)CO)C(=O)c2cc(NS(=O)(=O)c3ccccc3)ccc2O[C@@H]1CN(C)Cc1ccccc1 | 0.5 | -5.9 |
| COc1ccc(S(=O)(=O)N(C)C[C@H]2Oc3ccc(NC(=O)C4CC4)cc3C(=O)N([C@@H](C)CO)C[C@H]2C)cc1 | 0.3 | 0.4 |
| Cn1c2ccc(Br)cc2c2nnc(SCC(=O)N=C3NC(=O)CS3)nc21 | x | 2.8 |
| C[C@@H]1CN([C@H](C)CO)C(=O)c2cccc(NC(=O)C3CC3)c2O[C@H]1CN(C)C | x | 3.3 |
| C[C@@H]1CN([C@H](C)CO)C(=O)c2cccc(NC(=O)C3CC3)c2O[C@H]1CN(C)C(=O)NC1CCCCC1 | x | 1.0 |
| CN1[C@@H](CC(=O)c2ccccc2)CCC[C@H]1C[C@H](O)c1ccccc1 | -0.7 | 3.6 |
